High-throughput results deposited in PubChem BioAssay by several laboratories.
MT1-MMP act inh: inhibitors of human MT1-MMP activation | AID 651647 | 360,000 compounds, 0.061% hits | GFP/RFP ratio change, % at 20 µM | HT1080 RFP-PRO-GFP cells, GFP/RFP ratio fluorescence, overnight; percent of plate control window, DMSO zero;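 active = GFP/RFP ratio change of at least 30% with cell ATP level not reduced by more than half and red fluorescence within 50% of control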; note: strong numbers were not always called active
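Test system: HT1080 cells expressing an RFP-PRO-GFP fluorescent reporter construct / Compound dosing: single-point 20 µM compound, 1% DMSO / Schedule: cells overnight before dosing, compound overnight, 37 °C, 5% CO2 / Evaluation: GFP/RFP fluorescence ratio / Control set: DMSO and RFP-L50D-GFP cell wells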
Rce1 inhib: inhibitors of yeast Ras-converting enzyme; Q03530; yeast membranes, quenched prenylated peptide cleavage fluorescence; calls only; 290,000 compounds, 0.27% hits; AID 2563;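 active = fall in fluorescence gain of 50% or more versus controls, with final raw signal at or below 3038400; inconclusive = same 50% fall but final raw signal above 3038400; inactive = fall in fluorescence gain under 50%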;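 note: plate controls were neutral control wells for no effect and wells lacking membranes for full effect; tested at 10 µM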
Target sequence (Q03530 whole entry, looked up): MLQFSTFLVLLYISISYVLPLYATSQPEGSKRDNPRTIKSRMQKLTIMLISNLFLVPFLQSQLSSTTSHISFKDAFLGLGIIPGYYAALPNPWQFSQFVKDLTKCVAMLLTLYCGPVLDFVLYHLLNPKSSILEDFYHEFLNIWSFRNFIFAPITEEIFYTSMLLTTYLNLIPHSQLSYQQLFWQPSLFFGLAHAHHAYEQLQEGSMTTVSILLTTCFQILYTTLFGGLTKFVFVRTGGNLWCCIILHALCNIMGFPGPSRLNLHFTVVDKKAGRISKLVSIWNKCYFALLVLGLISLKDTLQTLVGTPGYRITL
PABP polyA inh: blocks human PABP binding to poly(A) RNA | P11940 | fluorescence polarization | inhibition, % at 35 µM | 290,000 compounds, 1% hits;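 active = 50% or more with normal probe brightness, or confirmed in later tests; inconclusive = above 50% with abnormal brightness, or retests that disagree; inactive = below 50% or failed in later tests; about a fifth of its hits are not listed in these tables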;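 note: calls also rest on retests at 20 µM and on dose response follow-up; controls were probe without protein and protein plus probe with vehicle; some compounds called inactive have numbers as strong as hits; many hits fall short of the cut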
Env fusion inh: blocks HIV Env-driven cell-cell fusion. inhibition, % at 12.3 µM. AID 651610. HeLa-JRFL Env/CEM21 cell fusion, luciferase. 360,000 compounds, 1.1% hits;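 active = mean replicate inhibition score of at least 50 and every replicate individually at or above 50; inconclusive = only one of the two criteria met; inactive = mean below 50 and not all replicates reaching 50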;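 note: 0% = plate neutral controls and 100% = maraviroc near 300 nM; one replicate is shown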
eIF4H inh: inhibitors of RNA binding by human eIF4H; Q15056; AID 2012; eIF4H fluorescence polarization binding assay; inhibition, % at 35 µM; 290,000 compounds, 0.94% hits;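 active = 50% or more with normal probe brightness, or confirmed in later tests; inconclusive = above 50% with abnormal brightness, or retests that disagree; inactive = below 50% or failed in later tests; about a fifth of its hits are not listed in these tables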;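 note: calls also rest on retests at 20 µM and on dose response follow-up; 0% = protein and probe with vehicle and 100% = probe without protein; strong numbers were not always called active; many hits fall short of the cut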
CSC inhib: cancer stem cell inhibition; inhibition, % at 7.5 µM; 300,000 compounds, 1.1% hits; cancer stem cell-like cells viability, luminescence;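 active = mean at 75% or more and at least half the replicates too; inconclusive = mean and replicates disagree; tested in HMLE shEcad cells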;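 note: 0% = median of negative and 100% = median of positive control wells; the first replicate is given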
UUG fidelity: alters start codon recognition fidelity in yeast. S. cerevisiae UUG-firefly luciferase reporter, luminescence/redox ratio. activity score, % at 18.7 µM. 350,000 compounds, 0.13% hits. AID 602363;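 active = replicate mean at a twofold rise or more, about +100% in these data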;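 note: firefly luciferase made from a UUG start codon reports start codon fidelity; reporter light over untreated wells divided by growth signal over untreated wells; some hits fall short of that in this replicate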
eIF4H inh retest: also measured in eIF4H inh; calls as there; inhibition, %; compound at 20 µM; confirmation average;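 mean of two retest wells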
PABP polyA inh retest: second read-out of PABP polyA inh, no call of its own (marks repeat the call); inhibition, %; compound at 20 µM; confirmation repeats;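 mean of two retest wells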
MT1-MMP act inh RFP: also measured in MT1-MMP act inh; calls as there; RFP signal change, %; measured here: RFP expression control read;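 0 = vehicle wells; hits needed this value within 50% of zero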
* = called active by the depositor; i = inactive; ? = inconclusive; / = not tested or not shown.

SMILES	MT1-MMP act inh	MT1-MMP act inh RFP	Rce1 inhib	PABP polyA inh	Env fusion inh	eIF4H inh	CSC inhib	UUG fidelity	others
CCC1CCC(c2nnc(-c3ccc(Br)cc3)o2)CC1 (configuration not stated)	2	1	i	-5	-16	-3	/	/
COc1cccc(CN(C)C(=O)CSc2nc3ccccc3[nH]2)c1OC	-3	-2	/	0	-3	-6	1	-23
CC(C)CCN1C(=O)c2ccc(C(=O)NCc3ccccn3)cc2C1=O	-3	-4	i	/	-1	/	-1	21
COc1c(Cl)cc(Cl)cc1CNCc1ccccc1	5	7	/	6	-39	0	-2	/
Cc1ccccc1COC(=O)CCCC1=NS(=O)(=O)c2ccccc2N1	-8	-4	i	/	4	/	0	-1
NC(=O)C1CCN(C(=O)c2ccc(NS(=O)(=O)c3ccc(F)cc3)cc2)CC1	2	2	/	/	-18	/	/	-7
COc1cccc(CN2CCNC(=O)C2CC(=O)NCC(C)(C)N2CCOCC2)c1OC (configuration not stated)	2	6	i	4	9	1	-6	-10
COc1ccccc1CNC(=O)C(=O)c1cn(CC(=O)N2CCCCC2)c2ccccc12	-6	-4	/	/	1	/	/	5
O=C(CN1C(=O)CC(c2ccco2)Sc2ccccc21)NCC1CCCO1 (configuration not stated)	-1	3	/	9	-8	1	/	-2
Cc1ccccc1N1C(=O)C(Cl)=C(N2CCCCCC2)C1=O	-3	-1	i	10	-34	-3	16	-8
Cc1ccc(C(=O)C[n+]2ccc(Cc3ccccc3)cc2)cc1	-5	-6	i	18	-7	-6	1	/
Cc1ccc(C(=O)C2Oc3ccccc3C3CC(c4ccc(C)cc4)=NN23)cc1 (configuration not stated)	-2	-6	i	-11	-38	8	22	-20
CCOC(=O)c1sc(-c2ccc(F)cc2)cc1NC(=O)Nc1ccccc1OC	0	1	i	3	19	-17	26	/
COCCn1cnnc1SCC(=O)Nc1cccc(S(=O)(=O)N2CCCCCC2)c1	6	1	i	13	/	-13	20	-6
CCOC(=O)C(C)n1ncn2cccc2c1=O (configuration not stated)	-4	-2	i	-1	/	1	/	-14
C=CCn1c(SCC(=O)Nc2ccc3c(c2)OCO3)nnc1-c1ccccc1OC	4	-5	i	-2	/	-7	-11	0
CCCc1nnc(SCC(=O)N2CCOCC2)n1Cc1ccco1	-4	1	i	1	/	6	-9	-16
CC1CCN(C(=O)C2CCN(S(=O)(=O)c3ccc4c(c3)CC(C)N4C(=O)C3CC3)CC2)CC1 (configuration not stated)	3	-5	i	1	9	0	-7	-6
Cc1ccc(NC(=O)c2ncn(CCCNCCCN3CCCC3=O)n2)cc1C	2	8	/	/	-26	/	/	4
CCN1CCN(C(=O)C(=O)c2cn(CC(=O)N(CC)CC)c3ccccc23)CC1	-7	0	i	8	1	2	14	-3
Cc1occc1C(=O)NNC(=O)CN1C(=O)NC2(CCCCC2)C1=O	4	5	/	/	17	/	/	-28
COc1ccc(CCc2nnc(CCC(=O)NCc3cnn(-c4ccccc4C)c3)o2)cc1	1	-5	i	0	-2	-1	-6	/
Cc1ccccc1-c1nc2ccccc2c(=O)n1/N=C/c1ccccc1[N+](=O)[O-]	0	3	i	4	/	-7	-3	-14
CCN(C(=O)CCc1ccccc1)C1CCCCC1	0	-3	i	7	-11	17	-15	3
COCCN1C=C2C(=O)C(C)(OC(=O)CCC(=O)OC)C(=O)C=C2C=C1C1CC1 (configuration not stated)	0	4	i	36	/	69	-9	-10	eIF4H inh retest=13;PABP polyA inh retest=31
COC(=O)c1ccc(CNC(=O)C(NC(=O)c2ccco2)C(C)C)cc1 (configuration not stated)	-7	0	i	7	0	-6	-9	-21
COC(=O)c1c(C)[nH]c(O)c1C=Nc1ccc(C#N)cc1	-6	13	i	5	-23	8	13	/
CSc1ccc(/C=C(\NC(=O)c2ccccc2)C(=O)NCCN2CCOCC2)cc1	-3	3	i	-1	-17	5	-3	2
CC1Cc2ccccc2N1C(=O)COC(=O)c1cccc(Br)c1 (configuration not stated)	3	6	/	/	12	/	-17	3
COc1cc(C2=NOC(C(=O)NCc3ccccn3)C2)cc(OC)c1OC (configuration not stated)	4	5	i	-9	-117	-4	-13	-16

Sorted by formula weight (high to low): 17 of the compounds above
SMILES	MT1-MMP act inh	MT1-MMP act inh RFP	Rce1 inhib	PABP polyA inh	Env fusion inh	eIF4H inh	CSC inhib	UUG fidelity	others
CC1CCN(C(=O)C2CCN(S(=O)(=O)c3ccc4c(c3)CC(C)N4C(=O)C3CC3)CC2)CC1 (configuration not stated)	3	-5	i	1	9	0	-7	-6
COCCn1cnnc1SCC(=O)Nc1cccc(S(=O)(=O)N2CCCCCC2)c1	6	1	i	13	/	-13	20	-6
CSc1ccc(/C=C(\NC(=O)c2ccccc2)C(=O)NCCN2CCOCC2)cc1	-3	3	i	-1	-17	5	-3	2
C=CCn1c(SCC(=O)Nc2ccc3c(c2)OCO3)nnc1-c1ccccc1OC	4	-5	i	-2	/	-7	-11	0
CCOC(=O)c1sc(-c2ccc(F)cc2)cc1NC(=O)Nc1ccccc1OC	0	1	i	3	19	-17	26	/
COCCN1C=C2C(=O)C(C)(OC(=O)CCC(=O)OC)C(=O)C=C2C=C1C1CC1 (configuration not stated)	0	4	i	36	/	69	-9	-10	eIF4H inh retest=13;PABP polyA inh retest=31
CCN1CCN(C(=O)C(=O)c2cn(CC(=O)N(CC)CC)c3ccccc23)CC1	-7	0	i	8	1	2	14	-3
Cc1ccccc1-c1nc2ccccc2c(=O)n1/N=C/c1ccccc1[N+](=O)[O-]	0	3	i	4	/	-7	-3	-14
CC1Cc2ccccc2N1C(=O)COC(=O)c1cccc(Br)c1 (configuration not stated)	3	6	/	/	12	/	-17	3
COc1cc(C2=NOC(C(=O)NCc3ccccn3)C2)cc(OC)c1OC (configuration not stated)	4	5	i	-9	-117	-4	-13	-16
COC(=O)c1ccc(CNC(=O)C(NC(=O)c2ccco2)C(C)C)cc1 (configuration not stated)	-7	0	i	7	0	-6	-9	-21
CCCc1nnc(SCC(=O)N2CCOCC2)n1Cc1ccco1	-4	1	i	1	/	6	-9	-16
Cc1occc1C(=O)NNC(=O)CN1C(=O)NC2(CCCCC2)C1=O	4	5	/	/	17	/	/	-28
Cc1ccc(C(=O)C[n+]2ccc(Cc3ccccc3)cc2)cc1	-5	-6	i	18	-7	-6	1	/
COC(=O)c1c(C)[nH]c(O)c1C=Nc1ccc(C#N)cc1	-6	13	i	5	-23	8	13	/
CCN(C(=O)CCc1ccccc1)C1CCCCC1	0	-3	i	7	-11	17	-15	3
CCOC(=O)C(C)n1ncn2cccc2c1=O (configuration not stated)	-4	-2	i	-1	/	1	/	-14

Carrying on.
SMILES	MT1-MMP act inh	MT1-MMP act inh RFP	Rce1 inhib	PABP polyA inh	Env fusion inh	eIF4H inh	CSC inhib	UUG fidelity	others
CCOc1cc(N2CCOCC2)c(OCC)cc1NC(=O)COC(=O)c1cc2ccccc2cc1O	3	3	i	5	1	-8	-5	-10
NC(=O)c1ccc(NC(=O)Cc2csc(-c3ccccc3)n2)cc1	0	2	i	9	13	-6	12	/
COc1ccccc1N1C(=O)C2C(C(=O)c3ccccc3)=NN(c3ccc(C)cc3)C2C1=O (configuration not stated)	-101	-4	i	?	-1	?	9	-17
COc1ccc(NC(=O)CON=CC(=O)Nc2ccc(C)cc2)c(OC)c1	5	0	/	/	/	/	-13	-2
COc1ccc(CCCC(=O)NCc2ccccc2)cc1C	3	3	i	-3	2	5	48	-14
Cc1nn(-c2ccccc2)c(N2CCCC2)c1/C=N/NC(=O)c1cc(-c2cccnc2)nc2ccccc12	-11	-10	i	-6	14	-11	15	-2
COC(=O)c1ccc(C(NC(=O)OCc2ccccc2)/C(C)=C/[C@@H](C)C(=O)NCc2ccc(OC)c(OC)c2)cc1 (some centres not stated)	-2	-7	i	9	/	-6	10	-1
COc1ccc(NC(=O)N2CCCC2C(=O)NC2CCCC2)cc1 (configuration not stated)	-1	4	i	6	-6	2	4	/
O=C(Cn1nc2n(c1=O)-c1ccccc1SC2)N/N=C/c1cccnc1	-2	-1	i	12	2	4	7	/
C1CSC2(N1)C1CC3CC2CC(C1)C31NCCS1 (configuration not stated)	-2	4	i	8	/	-2	9	-16
Cc1cccc(N(C)C(=O)CCS(=O)(=O)c2cccc3nonc23)c1	1	3	i	3	15	4	-1	-5
COc1ccc(CNC(=O)C(=O)NCC2OCCN2S(=O)(=O)c2ccc(OC)c(OC)c2)cc1 (configuration not stated)	-2	-4	i	5	-9	0	8	-3
COc1cc(C(=O)N/N=C/c2cc([N+](=O)[O-])cs2)cc(OC)c1OC	11	-3	i	1	/	9	52	/
CCOc1ccc(C(=O)NCCN2CCCCC2)c(OCC)c1	4	2	i	-8	-56	-7	-8	-4
CCN(C(=O)COC(=O)Cc1c(F)cccc1Cl)c1c(N)n(Cc2ccccc2)c(=O)[nH]c1=O	0	3	/	/	8	/	-2	-1

Sorted by molecular weight (lowest first): some entries from above
SMILES	MT1-MMP act inh	MT1-MMP act inh RFP	Rce1 inhib	PABP polyA inh	Env fusion inh	eIF4H inh	CSC inhib	UUG fidelity	others
COc1ccc(CCCC(=O)NCc2ccccc2)cc1C	3	3	i	-3	2	5	48	-14
COc1ccc(NC(=O)N2CCCC2C(=O)NC2CCCC2)cc1 (configuration not stated)	-1	4	i	6	-6	2	4	/
COc1ccccc1N1C(=O)C2C(C(=O)c3ccccc3)=NN(c3ccc(C)cc3)C2C1=O (configuration not stated)	-101	-4	i	?	-1	?	9	-17

Further entries
SMILES	MT1-MMP act inh	MT1-MMP act inh RFP	Rce1 inhib	PABP polyA inh	Env fusion inh	eIF4H inh	CSC inhib	UUG fidelity	others
CCOc1ccc(CC(=O)NCC(=O)NCc2cc(=O)n(C)c(=O)n2C)cc1	1	4	i	4	-1	-10	-21	-10
CCOC(=O)C1=C(O)C(=O)N(c2ccc(S(N)(=O)=O)cc2)C1c1ccc(OC)cc1 (configuration not stated)	0	5	i	8	/	-3	-14	-12
COc1ccc(NC(=O)CSc2nnc(Cn3cnc4ccccc43)n2C)cc1	1	0	i	66	/	-7	-6	-4	eIF4H inh retest=-1;PABP polyA inh retest=6
COc1ccc(CNC(=O)c2ccc(C(C)C)cc2)cc1	4	1	i	-10	-33	1	/	/
CCOC(=O)c1cnc(SCCN2CCOCC2)nc1N	7	7	i	2	-11	-2	5	-6
COC(=O)CSc1nnc(CNS(=O)(=O)c2ccc(Br)cc2)n1C	-3	3	i	-10	20	-9	-13	/
CCCCN1C(=O)C(C(=O)OCC)CC2=C1CCCC2=O (configuration not stated)	5	6	/	/	-14	/	/	8
Cc1cccc(NC(=O)c2ccc(S(=O)(=O)N3CCOCC3)cc2)n1	3	0	i	-3	2	3	13	/
CC1(C)Cc2c(sc3ncnc(NN)c23)CO1	4	0	i	-10	11	-4	0	-22
CN(Cc1ccccc1)C(=O)c1[nH]cnc1C(=O)N[C@@H](Cc1ccccc1)C(=O)OCc1ccccc1	0	0	i	-1	/	7	11	-3
CC(C)c1ccc(OCC(=O)N(Cc2ccco2)C2CCS(=O)(=O)C2)cc1 (configuration not stated)	-8	-3	i	-17	-19	-2	-5	2
